Screens deposited in PubChem BioAssay by several laboratories.
UUG fidelity: alters start codon recognition fidelity in yeast | activity score, % at 18.7 µM | 350,000 tested, 0.13% active | AID 602363 | S. cerevisiae UUG-firefly luciferase reporter, luminescence/redox ratio;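 active = replicate mean at a twofold rise or more, about +100% in these data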;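 note: firefly luciferase made from a UUG start codon reports start codon fidelity; reporter light over untreated wells divided by growth signal over untreated wells; some hits fall short of that in this replicate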
eIF4H FP inh: inhibitors of RNA binding by human eIF4H | Q15056 | eIF4H fluorescence polarization binding assay | inhibition, % at 35 µM | 290,000 tested, 0.94% active;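 active = 50% or more with normal probe brightness, or confirmed in later tests; inconclusive = above 50% with abnormal brightness, or retests that disagree; inactive = below 50% or failed in later tests; about a fifth of its hits are not listed in these tables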;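 note: calls also rest on retests at 20 µM and on dose response follow-up; 0% = protein and probe with vehicle and 100% = probe without protein; strong numbers were not always called active; many hits fall short of the cut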
CSC inhib: cancer stem cell inhibition; cancer stem cell-like cells viability, luminescence; inhibition, % at 7.5 µM; 300,000 tested, 1.1% active;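 active = mean at 75% or more and at least half the replicates too; inconclusive = mean and replicates disagree; tested in HMLE shEcad cells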;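 note: 0% = median of negative and 100% = median of positive control wells; the first replicate is given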
Rce1 inh: blocks yeast Ras-converting enzyme. Q03530. calls only. 290,000 tested, 0.27% active. yeast membranes, quenched prenylated peptide cleavage fluorescence;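 active = fall in fluorescence gain of 50% or more versus controls, with final raw signal at or below 3038400; inconclusive = same 50% fall but final raw signal above 3038400; inactive = fall in fluorescence gain under 50%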;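 note: plate controls were neutral control wells for no effect and wells lacking membranes for full effect; tested at 10 µM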
Env fusion inh: HIV envelope-mediated fusion inhibition. 360,000 tested, 1.1% active. HeLa-JRFL Env/CEM21 cell fusion, luciferase. inhibition, % at 12.3 µM;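 active = mean replicate inhibition score of at least 50 and every replicate individually at or above 50; inconclusive = only one of the two criteria met; inactive = mean below 50 and not all replicates reaching 50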;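 note: 0% = plate neutral controls and 100% = maraviroc near 300 nM; one replicate is shown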
PABP polyA inh: blocks human PABP binding to poly(A) RNA | fluorescence polarization | 290,000 tested, 1% active | inhibition, % at 35 µM | P11940 | AID 2014;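 active = 50% or more with normal probe brightness, or confirmed in later tests; inconclusive = above 50% with abnormal brightness, or retests that disagree; inactive = below 50% or failed in later tests; about a fifth of its hits are not listed in these tables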;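 note: calls also rest on retests at 20 µM and on dose response follow-up; controls were probe without protein and protein plus probe with vehicle; some compounds called inactive have numbers as strong as hits; many hits fall short of the cut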
Target sequence (P11940 whole entry, looked up): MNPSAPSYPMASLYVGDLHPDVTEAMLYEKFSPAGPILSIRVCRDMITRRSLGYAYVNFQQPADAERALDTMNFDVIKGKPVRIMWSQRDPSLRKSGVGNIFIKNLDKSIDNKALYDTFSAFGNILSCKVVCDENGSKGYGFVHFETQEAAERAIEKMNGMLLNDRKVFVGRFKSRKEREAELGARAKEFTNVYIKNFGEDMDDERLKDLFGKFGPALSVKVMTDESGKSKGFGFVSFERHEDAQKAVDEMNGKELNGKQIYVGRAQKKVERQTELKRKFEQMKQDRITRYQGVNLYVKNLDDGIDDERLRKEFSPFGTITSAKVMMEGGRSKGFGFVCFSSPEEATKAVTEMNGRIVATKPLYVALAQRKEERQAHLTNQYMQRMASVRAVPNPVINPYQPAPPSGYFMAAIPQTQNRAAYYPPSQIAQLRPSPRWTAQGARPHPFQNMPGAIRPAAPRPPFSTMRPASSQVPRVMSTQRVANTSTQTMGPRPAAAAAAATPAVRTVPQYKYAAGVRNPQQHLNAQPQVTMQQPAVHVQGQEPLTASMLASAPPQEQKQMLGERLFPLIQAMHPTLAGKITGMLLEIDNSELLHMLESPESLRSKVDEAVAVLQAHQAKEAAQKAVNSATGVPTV
MT1-MMP act inh: blocks activation of human MT1-MMP; P50281; HT1080 RFP-PRO-GFP cells, GFP/RFP ratio fluorescence, overnight; percent of plate control window, DMSO zero; GFP/RFP ratio change, % at 20 µM; 360,000 tested, 0.061% active; AID 651647;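 active = GFP/RFP ratio change of at least 30% with cell ATP level not reduced by more than half and red fluorescence within 50% of control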; note: strong numbers were not always called active
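Assay system: HT1080 cells carrying an RFP-PRO-GFP reporter | Dosing: Single dose of 20 µM compound, 1% DMSO final | Incubation: Cells overnight before dosing, compound overnight, 37 °C, 5% CO2 | Evaluation: GFP/RFP fluorescence ratio | Control set: DMSO and RFP-L50D-GFP cell wells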
PABP polyA inh retest: further read-out of PABP polyA inh, marked with its call; inhibition, %; compound at 20 µM; confirmation repeats;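 mean of two retest wells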
MT1-MMP act inh RFP: also measured in MT1-MMP act inh; calls as there; RFP signal change, %; measured here: RFP expression control read;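 0 = vehicle wells; hits needed this value within 50% of zero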
The depositor's hits bear a star; i = inactive; u = inconclusive; x = not tested or not shown.

SMILES | UUG fidelity | eIF4H FP inh | CSC inhib | Rce1 inh | Env fusion inh | PABP polyA inh | MT1-MMP act inh | MT1-MMP act inh RFP | others
O=C(C1=NN[C@@H]2C(=O)N(Cc3ccccc3)C(=O)[C@H]12)c1ccc([N+](=O)[O-])cc1 | x | -4 | 4 | i | -2 | -6 | 0 | -2
Cc1ccc(N2C(=O)c3ccccc3C2=O)nc1 | 3 | -2 | 4 | i | 6 | 2 | -3 | -4
Cn1c(=O)c2c(ncn2CC(=O)Nc2nc(-c3ccccc3Cl)cs2)n(C)c1=O | -13 | -2 | x | i | 45 | 6 | 2 | -17
CC(C)c1ccccc1OCC(O)CN1CCN(S(=O)(=O)c2ccc([N+](=O)[O-])cc2)CC1 (stereo not given) | 5 | 2 | 11 | i | 27 | -5 | -5 | -15
CN(CC(=O)Nc1ccc(F)c(F)c1F)C(=O)C1CCCN1C(=O)c1cccs1 (stereo not given) | -8 | x | x | x | -84 | x | -1 | 2
CS(=O)(=O)N1CCN(c2ccccc2NC(=O)Cc2ccc(Cl)cc2)CC1 | -14 | -1 | -14 | i | x | 8 | -4 | -3
CSc1nc(O)c(Nc2cccc(Cl)c2)c(=O)[nH]1 | -11 | -7 | 0 | i | 9 | 3 | -2 | -1
COc1ccc(CSc2nnnn2Cc2ccccc2)cc1OC | -5 | 4 | 17 | i | 36 | 7 | 3 | -2
COc1cccc(C(=O)C2=NN(C(C)=O)CC2c2ccco2)c1 (stereo not given) | x | 2 | -8 | i | 12 | -2 | -1 | 0
COc1cc(NC(=O)CNC(=O)Cn2cnc3sc(C)c(C)c3c2=O)cc(OC)c1OC | -34 | x | x | x | 11 | x | 2 | 3
Cc1ccc(S(=O)(=O)Nc2csc(C)c2C(=O)O)cc1 | x | 42 | -10 | i | -10 | 36 | x | x
CCOC(=O)CNC(=O)C12CC3CC(CC(C3)C1)C2 | x | 2 | -11 | i | 3 | -3 | 4 | 4
O=C(CCCc1c[nH]c2ccccc12)N1CCCCCC1 | 13 | -6 | -3 | i | x | -8 | -4 | 0
CCOC(=O)c1cnc(-n2nc(C)cc2C)nc1NNc1cc(-c2ccccc2)nc(C)n1 | x | 11 | x | i | x | -2 | x | x
CC(C)CCN(C(=O)Nc1ccccc1)C(C)c1cccs1 (stereo not given) | x | 5 | -2 | i | 7 | 11 | -2 | -3
O=C1C2C3CC(C2C(=O)N1c1cccc(Cl)c1)[C@H](O)C3O (stereo not given in full) | -5 | -5 | 2 | i | -5 | 0 | 14 | -1
NC(=O)CN(c1ccc(Oc2ccccc2)cc1)S(=O)(=O)c1ccccc1 | -12 | -3 | x | i | x | -12 | 2 | -1
COc1ccc(C(=O)NCCCCCC(=O)N/N=C/c2ccco2)cc1OC | 0 | 2 | -7 | i | -19 | 8 | -1 | 2
COc1ccc(C2CC(c3ccc(Cl)c(Cl)c3)Nc3nc(N)nn32)cc1 (stereo not given) | -21 | 0 | -25 | i | -18 | 3 | -2 | 0
COc1ccc(N/C=C(\C#N)c2ccc(OCCCF)cc2)cc1 | -18 | -8 | 12 | i | x | -7 | -8 | -5
Cc1ccc(S(=O)(=O)n2cnc3ccccc32)c(C)c1 | -19 | 6 | -5 | i | -37 | 20 | 8 | 11
CCOc1ccc2nc(NC(=O)/C=C/c3ccc4c(c3)OCO4)sc2c1 | x | -4 | 3 | i | 16 | 4 | 4 | 0
CCS(=O)(=O)N1CCN(C(=O)c2ccccc2[N+](=O)[O-])CC1 | -19 | -5 | -2 | i | -12 | 0 | 3 | 4
CSc1ncccc1C(=O)N1CCN(C(=O)c2ccccc2)CC1 | -7 | -8 | -12 | i | 7 | 4 | 0 | 5
O=[N+]([O-])c1cccc2c(N3CCOCC3)ccnc12 | x | 4 | -7 | i | -11 | -12 | 0 | -11

The list goes on; the last 4 above are carried over.
SMILES | UUG fidelity | eIF4H FP inh | CSC inhib | Rce1 inh | Env fusion inh | PABP polyA inh | MT1-MMP act inh | MT1-MMP act inh RFP | others
CCOc1ccc2nc(NC(=O)/C=C/c3ccc4c(c3)OCO4)sc2c1 | x | -4 | 3 | i | 16 | 4 | 4 | 0
CCS(=O)(=O)N1CCN(C(=O)c2ccccc2[N+](=O)[O-])CC1 | -19 | -5 | -2 | i | -12 | 0 | 3 | 4
CSc1ncccc1C(=O)N1CCN(C(=O)c2ccccc2)CC1 | -7 | -8 | -12 | i | 7 | 4 | 0 | 5
O=[N+]([O-])c1cccc2c(N3CCOCC3)ccnc12 | x | 4 | -7 | i | -11 | -12 | 0 | -11
CCOC(=O)N(Cc1ccccc1)Cc1ccc(C(=O)N[C@@H](Cc2ccccc2)C(=O)O)cc1 | x | x | -12 | i | 5 | x | -2 | 5
CCc1nc(SCC(=O)Nc2cccc(C(F)(F)F)c2)c2c(=O)n(C)c(=O)n(C)c2n1 | -6 | -10 | 19 | i | -3 | -2 | -8 | -4
Cc1csc(NC(=O)C2CCN(S(=O)(=O)c3cccs3)CC2)n1 | -14 | -8 | 4 | i | 14 | -4 | 2 | -10
CC(OC(=O)CC1CCCC1)C(=O)Nc1ccc(Cl)cn1 (stereo not given) | -15 | x | -4 | i | -22 | x | 3 | 2
Cc1ccc(N2C(=O)NC(NC(=O)C3CC3)(C(F)(F)F)C2=O)cc1 (stereo not given) | -9 | 1 | 0 | i | x | 9 | -3 | 1
COc1ccc(C(=O)Nc2cc(C)on2)cc1S(=O)(=O)N1CC(c2ccccc2)CC1=O (stereo not given) | -4 | 5 | -4 | i | -2 | -3 | 0 | 0
CS(=O)(=O)c1ccc(Cl)c(NC(=O)COC(=O)CNC(=O)c2cccs2)c1 | -29 | x | 11 | x | -12 | x | 5 | -1
CN(C(=O)COC(=O)c1c2c(nc3ccccc13)/C(=C/c1cccc([N+](=O)[O-])c1)CCC2)C1CCS(=O)(=O)C1 (stereo not given) | x | 2 | 8 | i | -1 | 4 | 1 | -1
CCN1C(=O)/C(=C/c2cccs2)SC1=Nc1ccc(OC)cc1 | -13 | 3 | 16 | i | x | -4 | 4 | 6
Cc1cccc(N2C(=O)CS/C2=N\NC(=O)c2ccc(Br)cc2)c1C | -21 | 2 | x | i | -20 | -14 | 0 | 3
Cc1c(Cl)cccc1NC(=O)CCC(=O)NNC(=O)c1ccccc1 | -12 | -6 | 0 | i | -55 | -5 | 0 | 3
N#Cc1ccc(OCC(=O)N2CCc3ccccc32)cc1 | -2 | x | 1 | x | -15 | x | -1 | 2
CCN(CC)C(=O)C(=O)Nc1ccc(OC)c(Cl)c1 | -12 | -1 | -10 | i | -1 | -3 | 3 | 7
O=C(NCc1ccccc1Cl)C1CCC(CNc2c(N3CCCCC3)c(=O)c2=O)CC1 (stereo not given) | 14 | 0 | -14 | i | -11 | 3 | 4 | 1
O=S(=O)(NCC1CCCO1)c1cnc(Cl)c(Br)c1 (stereo not given) | 8 | 0 | -4 | i | x | -6 | 0 | 6
Cc1cccc(C)c1NC(=O)C1(C)CCC(=O)N1CCCn1ccnc1 (stereo not given) | -6 | x | x | x | 21 | x | 3 | 4
CCCN1CCN(CCCNC(=O)C(CC)n2nc(C)c3sc4ccccc4c3c2=O)CC1 (stereo not given) | -4 | -7 | -6 | i | 0 | -10 | -2 | 2
Cc1ccc(C(=O)N/C(=C\c2cccs2)C(=O)NC2CCCCC2)cc1 | 4 | -7 | -9 | i | x | 3 | -5 | -12
COc1ccccc1C(=O)Nc1ccnn1C1CCN(Cc2cc(C)c(C)cc2C)CC1 | -10 | -13 | -2 | i | 10 | -3 | 4 | 0
OCCN1CCN(c2nc(NCc3ccco3)c3ccccc3n2)CC1 | x | -5 | -11 | i | x | -4 | -5 | 2
COc1ccc(NC(=O)c2ccc(NC(=O)CN3CCN(c4ccccc4)CC3)cc2)cc1 | -15 | x | -16 | x | x | x | 4 | 3
CCc1sc(C(=O)Nc2ccccc2N2CCOCC2)cc1C | x | -1 | 2 | i | 19 | -12 | 1 | 0
CS(=O)(=O)N(CCc1ccccc1)CC(=O)NCc1ccccc1 | -9 | -2 | 7 | i | 0 | -14 | 8 | 3
C/C(=N\NC(=O)CC1N=C(Cc2ccccc2)NNC1=O)c1ccc(Br)cc1 (stereo not given) | x | 2 | 3 | i | -7 | -6 | -4 | -5
O=C(CCc1ccccc1)N/N=C/c1cc(Br)ccc1O | x | 19 | -16 | i | x | -3 | -2 | -5

(cont.)
SMILES | UUG fidelity | eIF4H FP inh | CSC inhib | Rce1 inh | Env fusion inh | PABP polyA inh | MT1-MMP act inh | MT1-MMP act inh RFP | others
N#Cc1ccc(-c2csc(-c3ccno3)n2)cc1 | -22 | -6 | -8 | i | -14 | -3 | 1 | 2
CC(=O)c1ccc2c(c1)OCCOCCOCCOCCOCCO2 | -8 | 12 | -2 | i | 11 | -7 | -1 | -3
Cc1sc2ncn3cnnc3c2c1C | -27 | -2 | -1 | i | x | 0 | -6 | -4
COC(=O)C1=C(N)Oc2cc(C)n(Cc3cccnc3)c(=O)c2C1c1ccc(OC)c(OC)c1 (stereo not given) | x | 4 | -10 | i | x | 5 | -3 | 2
Cc1cccc(C(=O)NC(CC(=O)O)c2ccc(OC3CCCC3)cc2)c1[N+](=O)[O-] (stereo not given) | x | -4 | 11 | i | 21 | 9 | -2 | -7
CC(=O)c1cccc(NC=C2C(=O)OC3(CCCCC3)OC2=O)c1 | 2 | -3 | 13 | i | x | 7 | 3 | 5
CC(=O)N1CCN2C(=O)C1CCCC(=O)c1cc(C)ccc12 (stereo not given) | x | -8 | -24 | i | x | -4 | 3 | 2
CC[C@H](C)C(N)c1cn(C(CCCN=C(N)N)C(=O)N2CCNCC2)nn1 (stereo not given in full) | 8 | x | -17 | x | -7 | x | -2 | -1
CC(OC(=O)CCN=C1NS(=O)(=O)c2ccccc21)C(=O)NCc1ccccc1 (stereo not given) | -7 | x | 1 | i | x | x | 2 | 0
Cc1cccc(-c2nnc(SCC(=O)N3CCCC3)o2)c1 | -17 | -2 | -6 | i | -6 | 9 | -2 | -3
CCCc1nc2ccccc2c(C(=O)OCC(=O)Nc2cccc(S(=O)(=O)N3CCOCC3)c2)c1CC | -3 | 21 | 10 | i | -16 | 9 | 0 | -6
C=CCc1c(O)c(CC)cc2c(C)cc(=O)oc12 | x | -12 | -5 | u | -4 | -6 | -2 | 3
Cc1cccc(CC(=O)NCC(=O)NCc2cc(=O)n(C)c(=O)n2C)c1 | -4 | -3 | -10 | i | -2 | -8 | -2 | 4
COc1cccc(NC(=O)[C@@H]2CCCN2C(=O)[C@@H]2Cc3ccccc3CN2C(=O)OC(C)(C)C)c1 | 7 | -3 | -7 | i | 37 | -16 | 1 | 0
COc1ccc(-c2csc(Nc3ccc(C)cn3)n2)cc1 | x | 3 | 7 | i | -33 | -4 | 2 | -17
O=c1c2c(nc3cc(-c4ccc(Cl)cc4)[nH]n13)CCS2 | x | u | -19 | i | -55 | 0.7* | -9 | 3 | PABP polyA inh retest=111*
COCCOc1cc(COC)nc(-c2cccc(C)c2)n1 | -3 | 11 | -13 | i | 3 | 7 | 1 | -1
COc1ccccc1-c1nc(-c2ccc(C(=O)O)cc2)no1 | -6 | x | 2 | i | -6 | x | 4 | 2
O=C(COC(=O)c1cccc(C(=O)OCC(=O)NC2CCCCC2)n1)NC1CCCCC1 | -16 | 6 | 5 | i | -69 | -2 | 2 | 2
COc1ccc(OC)c(S(=O)(=O)NCCCc2ccccc2)c1 | -18 | -6 | -7 | i | -31 | 8 | 2 | 1
Cc1cccn2c(=O)c(/C=C(\C#N)C(=O)NCc3ccco3)c(N3CCCCC3)nc12 | 4 | 7 | 0 | i | x | -1 | -3 | -3
